Compound activity deposited in PubChem BioAssay by National Center for Advancing Translational Sciences (NCATS).
VACV Venus inh = vaccinia inhibition (Venus reporter). 330,000 tested, 0.46% active. Potency, µM (titrated, usually from 36.5 µM), for inactives: top-dose activity change, negative = inhibition, most hits filed as inhibitors. Vaccinia virus Venus reporter expression, fluorescence; active means well fitted inhibition curve with a large enough effect; inconclusive means small, poorly fitted or top-dose-only effect; inactive means no such curve, though single readings can be large or run the other way; tested in A549 cells; also: nearly all actives have a fitted effect of over 30% in size; inactives centre near -10
VACV mCherry inh = vaccinia inhibition (mCherry reporter); 310,000 tested, 0.63% active; AID 720579; Vaccinia virus mCherry reporter infection, fluorescence; about a quarter of the inactives have no number; Potency, µM (highest dose often 36.5 µM), for the others: top-dose activity change, negative = inhibition, most hits filed as inhibitors; active = well fitted inhibition curve with a large enough effect; inconclusive = small, poorly fitted or top-dose-only effect; inactive = no such curve, though single readings can be large or run the other way; tested in A549 cells; also: nearly all actives have a fitted effect of over 35% in size; inactives centre near -10
Starred values were filed as active, the others as inactive; [ ] = remark or other dose. % is scaled to controls: 0 for no effect and ±100 for the full control effect; potency is read from the fitted curve at half-maximal effect.

Screening O=C(NCCCNC(=O)c1cnccn1)c1ccc(Cl)c(Cl)c1 returned VACV Venus inh -4% and VACV mCherry inh -7%.
For COCC(C)N1CCC(n2nccc2NC(=O)CCCc2ccccc2)CC1 (stereo not given) the results were VACV Venus inh -9% and VACV mCherry inh -18%.
For C/C(=N\NC(=O)C1CC1)c1cccnc1 the results were VACV Venus inh -4% and VACV mCherry inh inactive.
For CC(C)CNC(=O)C1(C)CCCN1Cc1ccc(S(C)(=O)=O)cc1 (stereo not given) the results were VACV Venus inh -4% and VACV mCherry inh 5%.
For Cc1c(C)n(Cc2ccccc2)c2ccc(C(=O)NCc3ccccc3F)cc12 the results were VACV Venus inh -6% and VACV mCherry inh -11%.
For COc1ccc2[nH]cc(CCN=C(NC(=O)c3ccccc3F)Nc3nc(C)cc(C)n3)c2c1 the results were VACV Venus inh 1% and VACV mCherry inh -23%.
O=C(Nc1ccc([N+](=O)[O-])cc1)c1cccc(S(=O)(=O)Nc2ccccn2)c1 was read as VACV Venus inh -8% and VACV mCherry inh -17%.
Screening S=C1c2ccccc2CN1c1ccccc1 returned VACV Venus inh -22% and VACV mCherry inh -6%.
For Cc1ccc(CNC(=O)C2CCN(c3ncnc4c3nc3n4CCCCC3)CC2)cc1 the results were VACV Venus inh -10% and VACV mCherry inh inactive.
COc1ccc(NC(=O)c2cc3ccccc3oc2=O)cc1 was read as VACV Venus inh -4% and VACV mCherry inh inactive.
Screening Cc1cc(C)cc(NC(=O)Cn2c(=O)n(-c3ccc(C)c(C)c3)c(=O)c3oc4ccccc4c32)c1 returned VACV Venus inh -9% and VACV mCherry inh 0%.
`CC[n+]1c(C)sc2c(C)cc(C)cc21` gave VACV Venus inh -3% and VACV mCherry inh -9%.
For NC(=O)CC(NC(=O)c1cccc(Br)c1)c1ccc(NC2CCC2)c([N+](=O)[O-])c1 (stereo not given) the results were VACV Venus inh 0% and VACV mCherry inh inactive.
Screening Cc1cc2oc(=O)cc(CN3CCCCC3C)c2cc1C (stereo not given) returned VACV Venus inh -7% and VACV mCherry inh inactive.
Cn1nnnc1SCC(=O)Nc1ccc(Cl)cn1 was read as VACV Venus inh -3% and VACV mCherry inh inactive.
`CCN(CC)CCCNC(=O)c1cn(C)c2ccc(S(=O)(=O)N3CCOCC3)cc2c1=O` gave VACV Venus inh -6% and VACV mCherry inh -9%.
`CCn1c(SCC(=O)NCC2CCCO2)nc2c(c1=O)SC(C)C2` (stereo not given) gave VACV Venus inh 1% and VACV mCherry inh 6%.
For Cc1cccc(C)c1NC(=O)C(c1ccc(-c2ccccc2)cc1)n1c(=O)c(-c2ccco2)nc2ccccc21 (stereo not given) the results were VACV Venus inh 19% and VACV mCherry inh -4%.
Cc1ccc2[nH]cc(CCNC(=O)c3cccnc3)c2c1 was read as VACV Venus inh -5% and VACV mCherry inh inactive.
For Cc1ccc(NC(=O)c2sc3nc(N)c(C#N)cc3c2N)cc1 the results were VACV Venus inh -7% and VACV mCherry inh -20%.
Screening COC(=O)C1=C(C)N(Cc2ccccc2)C(=NCCc2c[nH]c3ccccc23)N[C@H]1c1ccccc1 returned VACV Venus inh -19% and VACV mCherry inh -21%.
`Cc1cccc(N2C(=O)CN=C2Nc2nc(C)cc(C)n2)c1` gave VACV Venus inh -1% and VACV mCherry inh inactive.
For NS(=O)(=O)c1ccc(CNC(=O)/C=C/c2ccccc2[N+](=O)[O-])cc1 the results were VACV Venus inh 7% and VACV mCherry inh -4%.
Screening Cc1ccc(CCNC(=O)Cn2c(-c3cccs3)cc3cc(F)ccc32)cc1 returned VACV Venus inh 1% and VACV mCherry inh -1%.
For Cc1c(C)c2c(OCC(=O)N3CCC(C(=O)O)CC3)cc3c(c2oc1=O)CCC(C)(C)O3 the results were VACV Venus inh 20% and VACV mCherry inh 37%[activator].
Screening O=C(NCc1ccncc1)c1ccc(S(=O)(=O)Nc2ccccc2)cc1 returned VACV Venus inh -4% and VACV mCherry inh -10%.
Cn1c(=O)n(Cc2ccccc2)c(=O)c2c1nc1n2CCN1c1ccccc1 was read as VACV Venus inh -2% and VACV mCherry inh -3%.
Screening O=C(NCC(c1ccco1)S(=O)(=O)c1cccs1)c1ccc(Cl)cc1 (stereo not given) returned VACV Venus inh -8% and VACV mCherry inh -12%.
For Cc1nnc(N2CCN(C(=O)Nc3cccc(C(F)(F)F)c3)CC2)c2nn(-c3ccccc3)c(C)c12 the results were VACV Venus inh -19% and VACV mCherry inh -22%.
`O=C(COc1cccc2ccccc12)NNC(=O)c1cnccn1` gave VACV Venus inh -20% and VACV mCherry inh -25%.

By substructure, the compounds so far with sulfur (twelve)
For CC(C)CNC(=O)C1(C)CCCN1Cc1ccc(S(C)(=O)=O)cc1 (stereo not given) the results were VACV Venus inh -4% and VACV mCherry inh 5%.
O=C(Nc1ccc([N+](=O)[O-])cc1)c1cccc(S(=O)(=O)Nc2ccccn2)c1 was read as VACV Venus inh -8% and VACV mCherry inh -17%.
Screening S=C1c2ccccc2CN1c1ccccc1 returned VACV Venus inh -22% and VACV mCherry inh -6%.
`CC[n+]1c(C)sc2c(C)cc(C)cc21` gave VACV Venus inh -3% and VACV mCherry inh -9%.
Cn1nnnc1SCC(=O)Nc1ccc(Cl)cn1 was read as VACV Venus inh -3% and VACV mCherry inh inactive.
`CCN(CC)CCCNC(=O)c1cn(C)c2ccc(S(=O)(=O)N3CCOCC3)cc2c1=O` gave VACV Venus inh -6% and VACV mCherry inh -9%.
`CCn1c(SCC(=O)NCC2CCCO2)nc2c(c1=O)SC(C)C2` (stereo not given) gave VACV Venus inh 1% and VACV mCherry inh 6%.
For Cc1ccc(NC(=O)c2sc3nc(N)c(C#N)cc3c2N)cc1 the results were VACV Venus inh -7% and VACV mCherry inh -20%.
For NS(=O)(=O)c1ccc(CNC(=O)/C=C/c2ccccc2[N+](=O)[O-])cc1 the results were VACV Venus inh 7% and VACV mCherry inh -4%.
Screening Cc1ccc(CCNC(=O)Cn2c(-c3cccs3)cc3cc(F)ccc32)cc1 returned VACV Venus inh 1% and VACV mCherry inh -1%.
Screening O=C(NCc1ccncc1)c1ccc(S(=O)(=O)Nc2ccccc2)cc1 returned VACV Venus inh -4% and VACV mCherry inh -10%.
Screening O=C(NCC(c1ccco1)S(=O)(=O)c1cccs1)c1ccc(Cl)cc1 (stereo not given) returned VACV Venus inh -8% and VACV mCherry inh -12%.

Later entries
Screening COc1ccc(CN2CC[C@H]3C=CC[C@@H](C(=O)Nc4nccs4)[C@H]3C2=O)cc1OC returned VACV Venus inh -22% and VACV mCherry inh -9%.
CSc1nc2c(c(=O)[nH]c(=O)n2C)n1Cc1ccccc1 was read as VACV Venus inh -15% and VACV mCherry inh -21%.
C=CCc1ccc(OCCOc2cccc(/C=N/n3cnnc3)c2)c(OC)c1 was read as VACV Venus inh 0% and VACV mCherry inh -4%.
CC(C(=O)c1ccc(-c2ccccc2)cc1)[n+]1cccc(Br)c1 (stereo not given) was read as VACV Venus inh -4% and VACV mCherry inh inconclusive.
`Cc1ccc(-n2nnnc2SCC(=O)c2c(N)n(CC(C)C)c(=O)n(C)c2=O)cc1` gave VACV Venus inh -12% and VACV mCherry inh -11%.
Screening CC(=O)Nc1cccc2c1C(=O)N(c1ccccc1C)C2=O returned VACV Venus inh -1% and VACV mCherry inh inactive.
`COc1ccc2c(C)cc(=O)[nH]c2c1` gave VACV Venus inh -3% and VACV mCherry inh -14%.
`Cc1cnc(C)c(-c2cc(F)c3c(c2)CC(CNC(=O)c2cccc(Cn4cccn4)c2)O3)n1` (stereo not given) gave VACV Venus inh 1% and VACV mCherry inh -14%.
For CCc1nc(C)cn1S(=O)(=O)c1cc([N+](=O)[O-])ccc1Cl the results were VACV Venus inh -28% and VACV mCherry inh -29%.
Screening COc1ccc(Nc2cc(C)c3cc(NC(=O)c4ccccc4Cl)ccc3n2)cc1 returned VACV Venus inh inconclusive and VACV mCherry inh inconclusive.
`CN(CC(=O)Nc1ccc(F)cc1)C(=O)c1cc(-c2ccco2)nc2ccccc12` gave VACV Venus inh -2% and VACV mCherry inh 6%.
Screening C[C@@H]1CN([C@H](C)CO)C(=O)CCCn2nncc2CO[C@H]1CN(C)C(=O)Oc1cccc2ccccc12 returned VACV Venus inh -11% and VACV mCherry inh -10%.
Screening Cc1cccc(C(C#N)c2nc3ccccc3nc2C(F)(F)F)c1 (stereo not given) returned VACV Venus inh -6% and VACV mCherry inh -27%.
`O=c1oc2ccccc2c(O)c1Cc1c(O)c2ccccc2oc1=O` gave VACV Venus inh -10% and VACV mCherry inh -12%.
COc1c(C)cccc1C(=O)Nc1ccc(N2CCOCC2)c(Cl)c1 was read as VACV Venus inh -12% and VACV mCherry inh -19%.
`CN(Cc1cccnc1)Cc1cn(C)nc1-c1ccc(Oc2ccccc2)cc1` gave VACV Venus inh -19% and VACV mCherry inh -4%.
Screening CCC(C(=O)OCC(=O)N(CCOC)c1c(N)n(Cc2ccccc2)c(=O)[nH]c1=O)c1ccccc1 (stereo not given) returned VACV Venus inh -5% and VACV mCherry inh 0%.
Screening COc1cccc(CC2(CO)CCN(Cc3cccn3-c3cccnc3)CC2)c1 returned VACV Venus inh 8% and VACV mCherry inh -10%.
Screening O=C(CCCN1C(=O)CCC1=O)Nc1ccc2c(c1)OCO2 returned VACV Venus inh -16%.
`CN(C)CCN1C(=O)CCC2(C)C1=CCC1C2CCC2(C)C1CCC2(C)O` (stereo not given) gave VACV Venus inh -9% and VACV mCherry inh inactive.
For Cn1nc(C(F)(F)F)c2cc(C(=O)NC3CC3)sc21 the results were VACV Venus inh -9%.
For CCCCn1c(N)c(N(CC(C)C)C(=O)c2ccc(COc3ccccc3)o2)c(=O)[nH]c1=O the results were VACV Venus inh 2% and VACV mCherry inh -3%.
For Brc1ccc2cccnc2c1 the results were VACV Venus inh 8%.
Nc1ccccc1C=C1Cc2ccccc2C1=O was read as VACV Venus inh -16% and VACV mCherry inh -20%.
Screening Cc1cccc(NC(=O)C(=O)NNC(=O)c2ccc(C(C)(C)C)cc2)c1 returned VACV Venus inh -23% and VACV mCherry inh -21%.
Screening Cc1oc2ccc(O)c(CN3CCN(Cc4ccccc4)CC3)c2c1C(=O)Nc1cccc(Cl)c1C returned VACV Venus inh -22% and VACV mCherry inh inconclusive.
Screening CC(=O)NNc1nc(-c2ccccc2)c2cc(Cl)ccc2n1 returned VACV Venus inh -13% and VACV mCherry inh -5%.
Screening COC(=O)c1nn(-c2ccccc2)c(Sc2ccc(Cl)cc2)c1/C=N/O returned VACV Venus inh -27% and VACV mCherry inh -14%[1.46 µM].
Cc1c(C=NNc2ccccc2)[nH]c(=O)[nH]c1=O was read as VACV Venus inh -9% and VACV mCherry inh -5%.
For CC(=O)c1ccc(OCC(=O)OCC(=O)N(CC(C)C)c2c(N)n(Cc3ccccc3)c(=O)[nH]c2=O)cc1 the results were VACV Venus inh -1% and VACV mCherry inh -11%.
Screening O=C(CNC(=O)Cc1ccccc1)N=Nc1c(O)[nH]c2ccccc12 returned VACV Venus inh -14% and VACV mCherry inh -9%.
Screening Cc1onc(-c2ccccc2)c1C(=O)Nc1cccc2nsnc12 returned VACV Venus inh -7% and VACV mCherry inh -22%[1.46 µM].
Screening CCOC(=O)c1nn(-c2ccc(OCC)cc2)c2nc(-c3cccc(OC)c3)c(C#N)c(=O)n12 returned VACV Venus inh 8% and VACV mCherry inh -23%.
Screening C=CCSc1nc(C)c(Cc2cccc3ccccc23)c(=O)[nH]1 returned VACV Venus inh -1% and VACV mCherry inh inactive.
COc1cc(/C=N/n2nnnc2N)cc(Cl)c1OC was read as VACV Venus inh -12% and VACV mCherry inh -5%.
For Cc1ccccc1NC(=S)N(CCCN1CCCCC1)Cc1ccco1 the results were VACV Venus inh -14% and VACV mCherry inh -15%.
CC(=O)N1c2ccccc2[C@H](C)[C@H]1C was read as VACV Venus inh -3% and VACV mCherry inh -12%.
Screening CCCCNc1c(-c2cccnc2)nc2nc(C)cc(C)n12 returned VACV Venus inh -7% and VACV mCherry inh -10%.
For C/C(=N\OC(=O)c1ccc(Cl)c(Cl)c1)c1sc(C)nc1C the results were VACV Venus inh 12%.
O=C(NCc1cccnc1)c1nc(-c2cccs2)no1 was read as VACV Venus inh 8% and VACV mCherry inh -5%.
Screening CC(C)NCC(O)Cn1c2c(c3ccccc31)CCc1c-2cnn1-c1ccccc1 (stereo not given) returned VACV Venus inh 11µM*.
`COC(CNC(=O)c1ccc(N2CCC3(CC2)OCCO3)c([N+](=O)[O-])c1)OC` gave VACV Venus inh -5% and VACV mCherry inh -14%.
For O=C(CSCCc1ccccn1)Nc1cccnc1Cl the results were VACV Venus inh -4% and VACV mCherry inh inactive.
`CCC(=O)c1cccc(-c2ccccc2)c1CC` gave VACV Venus inh -5% and VACV mCherry inh inactive.
Screening Cc1cc(NC(=O)c2cc(-c3ccco3)on2)nn1Cc1ccc(Cl)cc1 returned VACV Venus inh inconclusive and VACV mCherry inh -8%.
`CN1CCN(CCC(C#N)(c2ccccc2)c2ccccc2)CC1` gave VACV Venus inh inconclusive and VACV mCherry inh -14%.
Screening CCCCC(=O)Nc1cccc(-c2cn3ccccc3n2)c1 returned VACV Venus inh -7% and VACV mCherry inh -9%.
`Cc1cccc(NC(=O)c2ccc(F)c(S(=O)(=O)N(C)C3CCCCC3)c2)c1` gave VACV Venus inh inconclusive and VACV mCherry inh inconclusive.
COc1ccccc1CNC(=O)c1sccc1C was read as VACV Venus inh -13% and VACV mCherry inh inconclusive.
